VDR inhibitor – Inhibitors of the vitamin D receptor (VDR): qHTS. Vitamin D3 receptor (Homo sapiens), P11473. VDR-SRC2-3 peptide fluorescence polarization, 2 h. actives 0.93% (n = 400,000). Potency, µM, for the others: max response, negative = inhibition, usual class: inhibitors; active = well fitted inhibition curve with a large enough effect; inconclusive = small, poorly fitted or top-dose-only effect, or another doubt; inactive = no such curve, though single readings can be large or run the other way; also: series mostly up to about 120 µM
Target sequence (P11473 whole entry, looked up): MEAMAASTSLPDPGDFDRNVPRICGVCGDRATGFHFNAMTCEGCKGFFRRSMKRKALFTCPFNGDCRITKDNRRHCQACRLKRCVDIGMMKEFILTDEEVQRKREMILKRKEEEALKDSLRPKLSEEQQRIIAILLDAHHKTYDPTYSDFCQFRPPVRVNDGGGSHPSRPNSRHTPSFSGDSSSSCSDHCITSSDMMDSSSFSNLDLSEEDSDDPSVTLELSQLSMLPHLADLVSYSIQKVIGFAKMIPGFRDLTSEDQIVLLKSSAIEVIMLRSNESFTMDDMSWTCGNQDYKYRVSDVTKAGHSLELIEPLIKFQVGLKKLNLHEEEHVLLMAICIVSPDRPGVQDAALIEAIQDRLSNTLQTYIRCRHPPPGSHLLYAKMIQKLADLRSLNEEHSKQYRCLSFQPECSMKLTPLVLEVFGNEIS
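Fluorescence polarization assay measuring small-molecule disruption of VDR binding to the coregulator peptide SRC2-3. Compounds were pin-transferred (23 nl) into the reagent mix and incubated 2 h at room temperature before reading.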
Numbers without * were called inactive; ? = inconclusive; & = joins results of further samples. % is scaled to controls: 0 for no effect and ±100 for the full control effect; potency is read from the fitted curve at half-maximal effect.

VDR inhibitor	structure
-9%	Cc1ccc(N/C=C(\[N+](=O)[O-])S(=O)(=O)c2ccccc2)cc1
-15%	O=C(c1cccc(Cl)c1)N1CCCc2ccccc21
-2%	CCn1c(CNC(=O)c2ccco2)nnc1SCC(=O)Nc1cc(C(F)(F)F)ccc1Cl
17%	Cc1ccccc1NC(=O)c1cccc(NC(=O)c2c(C(=O)O)cccc2[N+](=O)[O-])c1
-3%	c1ccc(Oc2nc(NCc3ccco3)nc(NCc3ccco3)n2)cc1
-12%	O=C(O)/C=C/c1ccc(Cn2ccnc2)cc1
0%	O=C(CN1CCN(Cc2ccccc2)CC1)NNC(=O)c1ccc(Cl)cc1
-9%	O=C(NNC(=O)c1ccccc1F)c1ccc(-n2cncn2)c([N+](=O)[O-])c1
6%	O=C(Cn1c2ncccc2c(=O)n1-c1ccccc1)NCc1ccccc1Cl
-20%	Cc1cccc(CCN=C(N)NS(=O)(=O)c2ccccc2)c1
2%	CS(=O)(=O)n1nc(-c2ccc(Cl)cc2)nc1N
-13%	COc1ccc(N2C(=O)NC3CC2(C)Oc2ccc(Br)cc23)cc1OC (stereo not drawn)
0%	Cc1ccc(N(C(=O)CS(=O)CC(=O)Nc2ccc(F)cc2)C(C)C(=O)NC(C)(C)C)cc1 (stereo not drawn)
6%	O=C(Nc1ccc2nc(-c3ccco3)[nH]c2c1)c1cccs1
15%	CC(C)(C)OC(=O)N[C@@H](Cc1ccccc1)C(=O)N1CCC(C(=O)O)CC1
20%	COc1cc2sc(C)nc2c2sccc12
0%	Cc1cccc(C)c1NC(=O)CN(C)C(=O)c1ccc(N2C(=O)CCC2=O)cc1
3%	C/C(=N\NC(=O)c1cccc(Cl)c1)C1C(=O)c2ccccc2C1=O
0%	O=C(Nc1ncccn1)C1CCCN1S(=O)(=O)c1ccc(Cl)c(Cl)c1 (stereo not drawn)
-17%	CCOC(=O)c1cc(NC(=O)OC)c(C)nc1C
-15%	COc1ccccc1C(=O)N/C(=C/c1ccco1)C(=O)Nc1cccc(C(=O)O)c1
-11%	C/C(=N/NC(=O)c1ccccc1)C(=O)O
-4%	COC(=O)[C@]1(Cc2ccccc2)N[C@H](CN(C)S(=O)(=O)c2ccc(F)cc2)[C@@H]2C(=O)N(Cc3ccccc3)C(=O)[C@@H]21
1%	O=C(CSc1nnnn1-c1ccccc1)Nc1ncc2c(n1)CC(c1ccco1)CC2=O (stereo not drawn)
-7%	Cc1nc(NCc2ccc3c(c2)OCO3)c2nnn(Cc3ccccc3)c2n1
5%	COc1ccc(-n2c(COc3cccc4ccccc34)nnc2SCC(=O)NCc2ccco2)cc1
7%	O=C(N/N=C/c1ccccc1OCc1ccccc1)c1cccnc1
?	Cc1nn(-c2ccccc2)c(Cl)c1/C=C(\C#N)C(=O)NC(C)C
9%	Cc1ccc(NS(=O)(=O)c2ccc3[nH]c4c(c3c2)CCCCCC4)cc1Cl
1%	Cc1ccccc1S(=O)(=O)Cc1ccc(C(=O)O)o1
5%	CCOc1ccc(-c2nnc(SCC(=O)Nc3cccc(OC)c3)nc2-c2ccc(OCC)cc2)cc1
-22%	CCOc1ccc2c(c1)C(N(CCN1CCOCC1)C(=O)Nc1ccccc1)CC(C)(C)O2 (stereo not drawn)
-4%	C=CCN1C(=O)C(Cc2ccc(OC)cc2)S/C1=N\N=C\c1cccs1 (stereo not drawn)
-25%	Cc1noc(C)c1NC(=O)Nc1ccc2c(c1)CC(=O)N([C@@H](C)CO)C[C@@H](C)[C@@H](CN(C)C(=O)Nc1cccc3ccccc13)O2
13%	COc1ccccc1CNC(=O)c1ccc(CS(=O)c2ccccc2Cl)o1 (stereo not drawn)
-14%	CCN(CC(=O)Nc1ccccc1C(F)(F)F)C(=O)c1ccc2c(c1)NC(=O)CS2
-2%	O=C(Nc1cccc(Cl)c1)C1C2CCC3C(CCC21)C3(Cl)Cl (stereo not drawn)
-23%	Cn1c2ccccc2c(=O)c2cc(C#CC3=CCCCC3)ccc21
-1%	Cc1ncn(C23CC4CC(CC(C4)C2)C3)n1
1%	CCOc1ccc(CNC(=O)c2ccc(Sc3ccc(C)cc3)c(NC(C)=O)c2)cc1
-10%	O=C(O)c1cc2nccc(-c3ccco3)n2n1
-2%	Cc1ccccc1OCC(=O)NCC(=O)OC(c1ccccc1)c1ccccc1
2%	Cc1cccc(C)c1NC(=O)c1nc(S(C)(=O)=O)ncc1N(Cc1ccc(C(C)(C)C)cc1)Cc1ccco1
-11%	Cc1cc(C)c(C(=O)N2CCC(N3CCC(C(=O)NC(C)C)CC3)CC2)o1
-10%	CC1=[N+]([O-])C(C)(C)N(O)C1(C)C
-8%	CC(=O)OCC1OC(OCc2cn(C[C@H]3CC[C@H](Cn4cc(COC5OC(COC(C)=O)C(OC(C)=O)C(OC(C)=O)C5OC(C)=O)nn4)O3)nn2)C(OC(C)=O)C(OC(C)=O)C1OC(C)=O (stereo partly drawn)
5%	CCCCN1C(=O)C(=O)N(CC(=O)c2cc(C)n(-c3cc(C)on3)c2C)C1=O
2%	CC(=O)c1cccc(NC(=O)NC2CCCc3ccccc32)c1 (stereo not drawn)
-6%	O=C1COc2ccc(C(=O)COC(=O)CCc3ccc(S(=O)(=O)N4CCOCC4)cc3)cc2N1
2%	CCCOc1ccc(-c2nc(OCC)c3ccccc3n2)cc1
50µM*	CNc1cc(-c2ccccc2C)ncn1
17%	COc1ccc2c(Sc3ccc(C)cc3)c(C(=O)NCCc3ccccc3)[nH]c2c1
12%	CC(=O)Nc1ccccc1NC(=O)C/C(C)=N/NC(=O)Cc1cccc2ccccc12
10µM*	N#Cc1c(Nc2ccc(Cl)cc2)s[nH]c1=O
2%	CCOn1c(=O)c(=O)n(O)c2ccccc21
-1%	Cc1cccc(C)c1NC(=O)Cn1c(=O)n(Cc2ccccc2)c(=O)c2c(C)c(C(=O)N(C)C)sc21
-9%	COc1ccc(-c2cc(C(F)(F)F)nc(SCCC(=O)Nc3ccc(F)cc3F)n2)cc1
-15%	O=C(NC1CCCCC1)C1CC=CCC1C(=O)OCC(Cl)=C(Cl)Cl (stereo not drawn)
4%	Cc1ccccc1NC(=O)C(C)SCc1ccccc1 (stereo not drawn)
-2%	O=C(CN(C(=O)CNC(=O)c1cccs1)c1ccccc1)NC1CCCCC1

(listing goes on)
VDR inhibitor	structure
6%	COc1cccc(NC(=O)CSc2nc(=O)n(Cc3cccnc3)c3c2CCC3)c1
7%&12%	Cc1cccc(CNc2ncnc3ccc(-c4ccc5c(c4)OCO5)cc23)c1
10%	CCC(C)/C(C)=N/NC(=O)C1COc2ccccc2O1 (stereo not drawn)
-18%	COc1cccc(-c2nc(=S)c3c(o2)CCCC3)c1
9%	FC(F)(F)c1cc(-c2ccccc2)nc(N2CCCCC2)n1
17%	COc1cc(C(=O)Nc2cccc3cccnc23)cc(OC)c1OC
-26%	COc1cc(C(C)=O)ccc1OC(=O)c1cc2cccc(OC)c2oc1=O
-13%	CCOc1ccc(C(C)(C)C)cc1S(=O)(=O)N1CCOCC1
-4%	COc1ccccc1NC1=C(Cl)C(=O)N(c2ccccc2)C1=O
12%	Cc1ccc(C(=O)Cn2c(=N)n(CCN3CCOCC3)c3ccccc32)cc1
-19%	O=S(=O)(c1ccccc1)N1CCC2(CCCN(c3ccccn3)C2)CC1
5%	CCc1ccc(/C=C2/SC(=S)N(CCC(=O)Nc3cccc(C(=O)O)c3)C2=O)cc1
-5%	COc1ccc(/C=N/Nc2cc(N(C)C)nc(N(C)C)n2)cc1
0%	O=C(NCCSc1ccccc1)c1cncc(Br)c1
-10%	O=C(NCc1ccccc1)c1onc(CS(=O)(=O)c2ccccn2)c1C(=O)NCc1ccccc1
-5%	Cc1ccc(CNc2cccnc2)cc1
-7%	O=c1ccnc2n1COCS2
10%	Cc1cccc(NC(=S)N2CCC(c3nc4ccccc4s3)CC2)c1
-2%	COc1ccc(OC)c(NC(=O)C2CCCN2S(=O)(=O)c2cccc3nsnc23)c1 (stereo not drawn)
-9%	Cc1nc(Cl)c(C#N)cc1-c1ccccc1
11%	CSc1nc2nccc(/C=C\c3ccccc3)n2n1
8%	CN(C)/C=C/c1onc(-c2c(F)cccc2Cl)c1C#N
-8%	COC(=O)[C@]1(C)N[C@H](CN(C)C(=O)Nc2ccc(Cl)cc2)[C@@H]2C(=O)N(C)C(=O)[C@@H]21
-10%	COc1ccc(NS(=O)(=O)c2cc3c(cc2C)N(C(C)=O)CCO3)c(OC)c1
-8%	C=C[C@@]1(C)CC[C@H]2C(=CC[C@@H]3[C@]2(C)CCC[C@@]3(C)C(=O)O)C1
-14%	CCOC(=O)c1c(C)c(C(=O)OCC)n(C)c1C
-2%	CSc1ccc(/C=N/Nc2cccc(C(=O)O)c2)cc1
-3%	CC(C)N1CCOC1c1ccccc1 (stereo not drawn)
-3%	COC(=O)C(CCSC)NC(=O)c1cc2c(n(-c3ccc(OC)cc3)c1=O)CC(C)(C)CC2=O (stereo not drawn)
-18%	CC(NCc1ccc(S(N)(=O)=O)cc1)C(=O)Nc1ccc([N+](=O)[O-])cc1Cl (stereo not drawn)

19 structures out of the list, arranged by molar mass, highest first:
VDR inhibitor	structure
-3%	COC(=O)C(CCSC)NC(=O)c1cc2c(n(-c3ccc(OC)cc3)c1=O)CC(C)(C)CC2=O (stereo not drawn)
-2%	COc1ccc(OC)c(NC(=O)C2CCCN2S(=O)(=O)c2cccc3nsnc23)c1 (stereo not drawn)
5%	CCc1ccc(/C=C2/SC(=S)N(CCC(=O)Nc3cccc(C(=O)O)c3)C2=O)cc1
6%	COc1cccc(NC(=O)CSc2nc(=O)n(Cc3cccnc3)c3c2CCC3)c1
-10%	COc1ccc(NS(=O)(=O)c2cc3c(cc2C)N(C(C)=O)CCO3)c(OC)c1
12%	Cc1ccc(C(=O)Cn2c(=N)n(CCN3CCOCC3)c3ccccc32)cc1
-19%	O=S(=O)(c1ccccc1)N1CCC2(CCCN(c3ccccn3)C2)CC1
7%&12%	Cc1cccc(CNc2ncnc3ccc(-c4ccc5c(c4)OCO5)cc23)c1
-26%	COc1cc(C(C)=O)ccc1OC(=O)c1cc2cccc(OC)c2oc1=O
17%	COc1cc(C(=O)Nc2cccc3cccnc23)cc(OC)c1OC
-4%	COc1ccccc1NC1=C(Cl)C(=O)N(c2ccccc2)C1=O
9%	FC(F)(F)c1cc(-c2ccccc2)nc(N2CCCCC2)n1
-8%	C=C[C@@]1(C)CC[C@H]2C(=CC[C@@H]3[C@]2(C)CCC[C@@]3(C)C(=O)O)C1
10%	CCC(C)/C(C)=N/NC(=O)C1COc2ccccc2O1 (stereo not drawn)
-18%	COc1cccc(-c2nc(=S)c3c(o2)CCCC3)c1
-14%	CCOC(=O)c1c(C)c(C(=O)OCC)n(C)c1C
-5%	Cc1ccc(CNc2cccnc2)cc1
-3%	CC(C)N1CCOC1c1ccccc1 (stereo not drawn)
-7%	O=c1ccnc2n1COCS2

The results go on.
VDR inhibitor	structure
-7%	Cc1ccc(SCc2cc(=O)[nH]c(N3CCCCC3)n2)cc1
10%	N#CC(CO)(Cc1ccc(OC(F)F)cc1)c1nc2ccccc2[nH]1 (stereo not drawn)
-28%	CCN(CC)S(=O)(=O)c1ccc(N2CCOCC2)c(NC(=O)C2COc3ccccc3O2)c1 (stereo not drawn)
-5%	O=C(Nc1ccccc1)c1ccc2c(c1)CCN2S(=O)(=O)c1ccccc1
4%	COc1ccccc1C(=O)NCCC(=O)Nc1ccc(S(=O)(=O)N2CCC(C)CC2)cc1
-8%	CCOc1ccc(N(Cc2cc3cc(C)ccc3[nH]c2=O)C(=O)COC)cc1
17%	CNC(=O)/C(=C/c1ccc2c(c1)OCO2)NC(=O)c1ccc(Br)cc1
?	Cc1ccc(N2C(=O)S/C(=C/c3cn(C)c4ccccc34)C2=O)cc1
-6%	CCc1cccc(NC(=O)Cc2ccc([N+](=O)[O-])cc2)c1
1%	CC[C@]12c3[nH]c4ccccc4c3CCN1C(=O)C(CC(=O)NCc1ccc(OC)c(OC)c1)C[C@@H]2C(=O)N1CCN(C(=O)C2CC2)CC1 (stereo partly drawn)
9%	O=C(NC(Cc1c[nH]c2ccccc12)C(=O)O)c1ccccc1 (stereo not drawn)
-6%	Cc1nnsc1C(=O)N1CCCC(Nc2ccc(F)c(F)c2)C1 (stereo not drawn)
-9%	CC(C)CC(=O)OC(C)(C)[C@@H]1Cc2c(ccc3ccc(=O)oc23)O1
-7%	Cc1ccc(C)c(NC(=O)Cn2c(=O)n(CC(=O)NCCc3ccccc3)c(=O)c3ccccc32)c1
2%	N=c1c[n+](-c2ccc(Cl)cc2)[n-]o1
-4%	C=CCc1cc(C=O)cc(OC)c1OCc1ccc(C(=O)O)cc1
10%	COc1cccc(-c2nc(CS(=O)(=O)CC(=O)Nc3ccccc3C)c(C)o2)c1
8%	CC(=O)c1ccc(NC(=O)Nc2ncn(Cc3cccc(C)c3)n2)cc1
11%	CCOC(=O)C1=C(CN2CC(C)CC(C)C2)NC(=O)NC1c1ccc2c(c1)OCO2 (stereo not drawn)
-6%	Cc1ccc2nc(-c3cccc(NS(C)(=O)=O)c3)cc(-c3ccccc3)c2c1
-20%	COc1cccc(CNC(=O)C(NS(=O)(=O)c2ccc3nc(C)sc3c2)C(C)C)c1 (stereo not drawn)
-4%	COc1ccc(CCCC(=O)O)c(C)c1
6%	Cc1ccc(OCc2nc(-c3ccc(C(=O)N4CCN(c5ccc(Cl)cc5)CC4)cc3)oc2C)cc1
-13%	Cc1ccc(NC(=O)C2CCCN(S(=O)(=O)c3cccc4nonc34)C2)cc1 (stereo not drawn)
-6%	Oc1cc(NCc2ccc(F)cc2)cc2cccnc12
5%	CC(=O)Nc1ccc(S(=O)(=O)N2CN(c3ccc(C)cc3)c3nc4ccccc4nc32)cc1
5%	Cc1ccc(OCC(=O)Nc2cc(-c3nc4ccccc4[nH]3)ccc2C)c(C)c1

3 entries out of the list, sorted by formula weight, rising:
VDR inhibitor	structure
-9%	CC(C)CC(=O)OC(C)(C)[C@@H]1Cc2c(ccc3ccc(=O)oc23)O1
-6%	Cc1ccc2nc(-c3cccc(NS(C)(=O)=O)c3)cc(-c3ccccc3)c2c1
-28%	CCN(CC)S(=O)(=O)c1ccc(N2CCOCC2)c(NC(=O)C2COc3ccccc3O2)c1 (stereo not drawn)

Assay outcomes as filed in PubChem.

These rows are one share of the data; count on the stated rates, not on these rows.
